Assay outcomes as filed in PubChem BioAssay.
GLA inh pH 4.5 = qHTS Assay for Inhibitors of Human alpha-Galactosidase at pH 4.5; AID 1467, 2008; purified enzyme, 4-MU-alpha-Gal fluorescence, pH 4.5; activity change, negative = inhibition, % at 105 µM; 230,000 tested, under 10 active; inconclusive = small, poorly fitted or top-dose-only inhibition, or a rising curve; inactive = flat fitted curve, though single readings scatter; no compound was filed as active;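 note: 0% = full activity with enzyme and -100% = basal without enzyme; dose as in the result columns while the protocol names 77 µM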
Rango dissoc inh = qHTS Assay for Inhibitors of RanGTP induced Rango (Ran-regulated importin-beta cargo) - Importin beta complex dissociation. Snurportin-1 (Homo sapiens) + GTP-binding nuclear protein Ran (Homo sapiens) + Importin …. Biochemical FRET Rango-importin beta, RanGTP-induced dissociation. Potency, µM (series often up to 46.1 µM), for the others: at the top dose activity change, negative = inhibition. 340,000 compounds, 0.071% hits; active means falling FRET ratio curve, often poorly fitted, with flat reads before Ran was added; inconclusive means other falling curves, or compound fluorescence or quenching; inactive means flat or rising ratio curve;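 note: potency is the fitted concentration of half-maximal effect; % of control where 0% means no effect; nearly all actives have a fitted effect of over 45% in size; -100% = wells without RanGTP and RCC1; the record marks most hits as doubtful in a second field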
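Recombinant Rango FRET biosensor (EYFP–snurportin 1 IBB–cerulean CFP10) at 0.1 uM premixed with 0.25 uM importin beta in PBS, 1 mM DTT, 0.02% Tween-20, 0.1% BSA. Compound added 5 min; RanGTP-RCC1 (0.6 uM Ran, 2 mM GTP, 0.2 uM RCC1) then triggers release, read at 45 min.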
Rango complex inh = qHTS Assay for Inhibitors of Rango (Ran-regulated importin-beta cargo) - Importin beta complex formation; Importin subunit beta-1 (Homo sapiens), Q14974; Potency, µM (doses to about 92.2 µM), without a hit: top-dose inhibition of complex formation; 340,000 compounds, 0.031% hits; Rango CFP/YFP FRET sensor + importin beta, 45 min; active = rising FRET ratio curve, often small or poorly fitted; inconclusive = mostly compound fluorescence or quenching in the first reads; inactive = flat curves in all reads;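 note: potency is the fitted concentration of half-maximal effect; 0% = DMSO wells and 100% = buffer wells lacking importin beta; nearly all actives have a fitted effect of over 15% in size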
Target sequence (Q14974 whole entry, looked up): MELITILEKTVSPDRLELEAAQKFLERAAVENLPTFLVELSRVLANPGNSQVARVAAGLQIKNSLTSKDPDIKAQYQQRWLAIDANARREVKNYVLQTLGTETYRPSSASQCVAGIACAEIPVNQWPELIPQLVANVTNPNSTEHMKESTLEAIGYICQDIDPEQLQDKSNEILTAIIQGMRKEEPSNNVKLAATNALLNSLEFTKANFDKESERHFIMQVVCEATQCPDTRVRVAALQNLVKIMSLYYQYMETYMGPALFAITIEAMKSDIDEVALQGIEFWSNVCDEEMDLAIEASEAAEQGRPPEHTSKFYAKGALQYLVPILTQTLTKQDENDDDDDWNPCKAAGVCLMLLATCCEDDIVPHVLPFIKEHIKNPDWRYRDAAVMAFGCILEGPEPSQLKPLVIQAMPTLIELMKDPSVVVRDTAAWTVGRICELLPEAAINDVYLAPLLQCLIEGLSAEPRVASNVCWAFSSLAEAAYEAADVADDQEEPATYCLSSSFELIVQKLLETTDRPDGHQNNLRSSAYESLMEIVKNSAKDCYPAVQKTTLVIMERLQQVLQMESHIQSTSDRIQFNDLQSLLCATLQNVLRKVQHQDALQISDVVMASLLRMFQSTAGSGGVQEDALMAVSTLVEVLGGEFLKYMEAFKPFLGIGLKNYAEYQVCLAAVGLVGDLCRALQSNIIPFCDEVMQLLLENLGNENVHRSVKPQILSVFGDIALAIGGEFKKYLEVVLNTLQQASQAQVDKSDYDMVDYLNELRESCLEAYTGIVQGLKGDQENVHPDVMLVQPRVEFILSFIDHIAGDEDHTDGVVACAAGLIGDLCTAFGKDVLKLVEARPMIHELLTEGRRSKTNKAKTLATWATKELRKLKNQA
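FRET biosensor (snurportin 1 IBB flanked by EYFP and cerulean), 50 nM, with compound 5 min, then 0.125 microM importin beta in PBS, 1 mM DTT, 0.02% Tween-20, 0.1% BSA. CFP/YFP ratio read after 45 min at room temperature; pre-read flags interference.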
miR-21 reporter = qHTS Assay for Modulators of miRNAs and/orActivators of miR-21; Potency, µM (series often up to 38.3 µM), inactives show at the highest dose reporter change, positive = more light; AID 2288, 2010; 340,000 tested, under 10 active; HeLa miR-21 FLuc reporter, luciferase, 48 h; active = well fitted rising curve with a large enough effect; inconclusive = small, poorly fitted or top-dose-only effect; inactive = no such curve, though single readings can be large or run the other way;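 note: % of control where 0% means no effect; miR-21 action dims this reporter so a rising signal means less miR-21 action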
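Luminescence from a firefly luciferase reporter carrying a miR-21 binding site downstream, stably expressed under a CMV promoter in HeLa cells that make miR-21 endogenously, reports miRNA modulation after 48 h compound exposure up to approximately 40uM final.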
Numbers without * were called inactive; ? = inconclusive; nt = no result given.

miR-21 reporter	Rango dissoc inh	GLA inh pH 4.5	Rango complex inh	structure
-5%	0%	12	3.2%	Cc1ccc(N2C(=O)C3C(C2=O)C2C=CC3C23CC3)cc1 (stereo unspecified)
-3%	6%	0	-0.5%	CC(c1nnc(SCC(=O)Nc2sccc2C#N)n1-c1ccc(Cl)cc1)N(C)C (stereo unspecified)
-11%	0%	2	-5.8%	Cc1cccc(C(=O)Nc2nnc(C3=COCCO3)o2)c1
-71%	-4%	-6	0.5%	Cc1cc(N)n2ncc(-c3ccccc3)c2n1
nt	26%	nt	0.1%	COc1ccc(Cc2nnc(SCC(=O)Nc3c(C)cccc3C)[nH]c2=O)cc1
nt	-8%	nt	-1.3%	O=C(CN1C(=O)NC(Cc2ccccc2)C1=O)Nc1ccc(OC(F)(F)F)cc1 (stereo unspecified)
-35%	-21%	-2	-3.1%	Cc1cc(/C=N/NC(=O)c2ccc(O)cc2)c(C)n1CC(C)C
nt	4%	nt	1.5%	CN(Cc1ccccc1)C(=O)c1ccc(NC(=O)Cc2ccc(NC(=O)C3CCCN(S(=O)(=O)c4cccc([N+](=O)[O-])c4)C3)cc2)cc1 (stereo unspecified)
-16%	-4%	-14	3.4%	Cc1ccc2nc(Cl)c(C3CC(c4ccco4)=NN3S(C)(=O)=O)cc2c1 (stereo unspecified)
-12%	7%	-23	-0.5%	COc1ccc(C(=O)N/C(=C\c2cccs2)c2nc3ccccc3[nH]2)cc1OC
-1%	4%	3	0.3%	CC(C)C(=O)N1CCN(c2ccccc2NC(=S)NC(=O)c2cccs2)CC1
nt	26%	nt	-0.5%	CS(=O)(=O)c1ccc(Cl)c(NC(=O)COC(=O)Cc2c[nH]c3ccccc23)c1
-18%	1%	-7	-1.4%	O=C(Nc1ccc(Cl)cc1)N1CCSCC1
0%	?	nt	0.1%	CCCCOc1cccc(C(=O)Nc2ccc(S(=O)(=O)Nc3nnc(CC)s3)cc2)c1
-7%	6%	-4	-5.7%	CCN(CC)S(=O)(=O)c1ccc(Cl)c(C(=O)NCc2ccco2)c1
2%	15%	nt	0.0%	CCN(CC(=O)Nc1cc(Cl)ccc1C)C(=O)COc1cccc2c1OC(C)(C)C2
0%	-1%	5	-1.6%	Cc1ccc(NC(=S)N(CCN2CCOCC2)Cc2cc3cc4c(cc3[nH]c2=O)OCO4)cc1
-21%	5%	6	1.8%	Cc1cc(C)c2c(c1)/C(=N\N=c1\sc3ccccc3n1C)C(=O)N2
-23%	9%	nt	-4.6%	C/C(=N\Nc1nncc2ccccc12)c1ccc(O)cc1
nt	0%	nt	-1.3%	O=C(c1cc2ccccc2oc1=O)N1CCCN(C(=O)c2cc3ccccc3oc2=O)CC1
14%	?	-6	?	CN1/C(=C\C=N\NC(=O)c2ccc(O)cc2)C(C)(C)c2ccccc21
-63%	-18%	-19	-7.2%	COc1ccc(-c2nc(C#N)c(NCCc3ccccc3)o2)cc1
-1%	-16%	-4	?	O=C(c1ccc(N2C(=O)C3CC=C(Cl)CC3C2=O)cc1)N1CCCCC1 (stereo unspecified)
1%	-1%	3	-4.0%	Cc1ccc(S(=O)(=O)N2CCN(C(=O)c3cc4c(C)nn(-c5ccccc5)c4s3)CC2)cc1
-1%	-16%	-1	0.6%	Cc1nn(CC(=O)Nc2ccc(Cl)cn2)c(C)c1[N+](=O)[O-]
-41%	4%	8	?	CCOc1ccccc1-c1nc(-c2ccncc2)no1
-6%	25%	-1	-4.5%	COC(=O)c1ccc(NC(=O)C23CC4CC(C2)CC(n2cncn2)(C4)C3)cc1
nt	-11%	nt	-3.6%	O=C(OCC(=O)N1CCN(c2ccccc2)CC1)c1ccncc1
-4%	-8%	-14	0.4%	COc1ccc(CCn2c(N3CCN(Cc4ccccc4)CC3)nc3c2c(=O)[nH]c(=O)n3C)cc1
2%	-12%	-1	5.5%	Cc1ccccc1NC(=S)NCc1ccccc1
nt	10%	nt	-0.2%	CCCOc1cc(C)c(S(=O)(=O)NCc2cccs2)cc1C
-4%	2%	nt	-0.6%	c1nc2ccc(Cc3ccc4nc[nH]c4c3)cc2[nH]1
nt	0%	nt	3.1%	CCCCn1c(N)c(N(CCOC)C(=O)c2c(C)noc2C)c(=O)[nH]c1=O
1%	-20%	8	?	CC(C)OC(=O)c1cc(C(=O)c2cc(Br)ccc2O)coc1=N
11%	0%	1	-2.9%	Cc1ccccc1C(=O)Nc1ccccc1C(=O)NCc1ccccc1
-8%	-15%	nt	-0.6%	Cc1ccccc1NC(=O)NNC(=O)COc1ccc2ccccc2c1
-45%	0%	-1	-0.3%	O=C1/C(=C/c2cccs2)SC(=S)N1c1cccc(O)c1
-1%	4%	-15	7.4%	O=[N+]([O-])c1cc2c(cc1Br)CCN2
-5%	-9%	5	0.0%	Cc1nc(N2CCN(Cc3ccccc3)CC2)c(C#N)c2c1COC(C)(C)C2
1%	-18%	4	-5.3%	Cn1c(=O)c2c(nc(N/N=C/c3ccc(OC(=O)c4ccco4)cc3)n2Cc2ccc(F)cc2)n(C)c1=O

In another format: 14 of the compounds above.
Compound,miR-21 reporter,Rango dissoc inh,GLA inh pH 4.5,Rango complex inh
COC(=O)c1ccc(NC(=O)C23CC4CC(C2)CC(n2cncn2)(C4)C3)cc1,-6%,25%,-1,-4.5%
O=C(OCC(=O)N1CCN(c2ccccc2)CC1)c1ccncc1,nt,-11%,nt,-3.6%
COc1ccc(CCn2c(N3CCN(Cc4ccccc4)CC3)nc3c2c(=O)[nH]c(=O)n3C)cc1,-4%,-8%,-14,0.4%
Cc1ccccc1NC(=S)NCc1ccccc1,2%,-12%,-1,5.5%
CCCOc1cc(C)c(S(=O)(=O)NCc2cccs2)cc1C,nt,10%,nt,-0.2%
c1nc2ccc(Cc3ccc4nc[nH]c4c3)cc2[nH]1,-4%,2%,nt,-0.6%
CCCCn1c(N)c(N(CCOC)C(=O)c2c(C)noc2C)c(=O)[nH]c1=O,nt,0%,nt,3.1%
CC(C)OC(=O)c1cc(C(=O)c2cc(Br)ccc2O)coc1=N,1%,-20%,8,?
Cc1ccccc1C(=O)Nc1ccccc1C(=O)NCc1ccccc1,11%,0%,1,-2.9%
Cc1ccccc1NC(=O)NNC(=O)COc1ccc2ccccc2c1,-8%,-15%,nt,-0.6%
O=C1/C(=C/c2cccs2)SC(=S)N1c1cccc(O)c1,-45%,0%,-1,-0.3%
O=[N+]([O-])c1cc2c(cc1Br)CCN2,-1%,4%,-15,7.4%
Cc1nc(N2CCN(Cc3ccccc3)CC2)c(C#N)c2c1COC(C)(C)C2,-5%,-9%,5,0.0%
Cn1c(=O)c2c(nc(N/N=C/c3ccc(OC(=O)c4ccco4)cc3)n2Cc2ccc(F)cc2)n(C)c1=O,1%,-18%,4,-5.3%

The listing continues.
miR-21 reporter	Rango dissoc inh	GLA inh pH 4.5	Rango complex inh	structure
0%	16%	-21	-5.4%	CCOC(=O)N1CCC(NC(=O)c2cc(C(=O)Nc3ccc(S(=O)(=O)N4CCCCC4)cc3)ccc2CO)CC1
-9%	0%	4	-1.7%	O=C(NCc1ccccn1)c1ccc(CNS(=O)(=O)c2cccc(C(F)(F)F)c2)cc1
nt	-5%	nt	?	O=C(CSc1nnc2ccc(-c3ccccn3)nn12)Nc1ccccc1
-54%	?	nt	?	CCCOc1ccc(-c2c(=O)n(O)c3ccccc3[n+]2[O-])cc1
-3%	15%	-4	-8.0%	CCOC(=O)c1c(NC(=O)c2cccc(N3C(=O)CCC3=O)c2)sc(C)c1C
11%	-11%	9	?	CC[n+]1c(/C=C/Nc2ccccc2)oc2ccc(OC)cc21
0%	2%	nt	-0.2%	O=C(NC1CCCCC1)C1CCCN1S(=O)(=O)c1ccc(F)cc1 (stereo unspecified)
5%	10%	nt	-0.4%	CCC(CC)c1nnc(NC(=O)CS(=O)(=O)c2ccc(C)cc2)s1
-1%	-17%	nt	0.1%	COc1ccc(N2CCN(C(=O)c3cccc(NC4=NC5CS(=O)(=O)CC5S4)c3)CC2)cc1 (stereo unspecified)
-30%	37%	-2	-0.7%	O=C(N/N=C/c1ccccn1)c1cc(-c2cccc3ccccc23)n[nH]1
-40%	1%	nt	-1.6%	CCN(CC)C(=O)c1cc2c(=O)n3cccc(C)c3nc2s1

This is a subset; the hit share may differ from the screen's.
